CBX7 inh = CBX7 inhibition, primary AlphaScreen; normalised signal (fraction of DMSO) (test concentration not listed); AlphaScreen His6-CBX7 / biotin-H3K27me3 peptide binding; hits give low values; AID 1224903; hit rate 1.1% among 66,000; O95931; in the data active means normalised signal below about 0.5;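 further: 100 nL library stock added to about 20 µL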
Target sequence (O95931 whole entry, looked up): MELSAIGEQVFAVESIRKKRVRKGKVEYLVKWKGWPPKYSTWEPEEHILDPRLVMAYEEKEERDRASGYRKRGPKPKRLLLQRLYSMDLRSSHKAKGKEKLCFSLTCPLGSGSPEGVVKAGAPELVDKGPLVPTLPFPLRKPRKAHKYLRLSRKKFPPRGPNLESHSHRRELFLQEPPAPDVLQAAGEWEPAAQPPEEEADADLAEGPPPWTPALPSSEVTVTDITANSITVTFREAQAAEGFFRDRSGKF
CBX7 inh z-score = recorded beside CBX7 inh, whose call it bears; z-score; measured here: z-score of CBX7 signal; some inactives read as strong as hits; reference of the scale not given here;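 same signal on another scale; lower means less binding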
Numbers without * were called inactive; & = joins results of further samples. Not all compounds are listed, so the mix of outcomes need not match the whole.

canonical_smiles,CBX7 inh,CBX7 inh z-score
COc1ccc(C(=O)Nc2nc(C(F)(F)F)c(-c3ccccn3)s2)cc1OC,1.03&1.03,0.866&0.0309
Cc1n[nH]c(C)c1CCCOc1ccc(Br)cc1,1.01,0.429
CCOc1ccc(-n2c(Cc3cc(=O)[nH]c(=O)[nH]3)nnc2SCC(=O)OC)cc1,0.945,-1.46
Cc1ccc(NCC(O)Cn2c3c(c4cc(C)ccc42)CCCC3)c(C)c1 (stereo not given),0.475*,-5.67*
CC(=O)Nc1ccc(-n2c(CCC(=O)O)ccc2-c2ccc(F)cc2)cc1,0.868,-2.46
COc1ccc(C)cc1NC(=O)CCNS(=O)(=O)c1ccc2c(c1)CCC(=O)N2,1.13,2.47
CCCN(CCC)C(=O)CS(=O)(=O)Cc1nc(-c2cccc(OC)c2)oc1C,1.27,2.26
Cc1ccc(-n2c3c(cc(C(=O)Nc4ccc(S(N)(=O)=O)cc4)c2=O)C(=O)CCC3)cc1,1.02,1.06
CCc1ccc2c(c1)c(=O)c(S(=O)(=O)c1ccccc1)cn2CC(=O)Nc1ccc(C)cc1,0.87,-4.25
Cc1ccc(Nc2nnc(-c3ccc(C(=O)NCCO)cc3)c3ccccc23)cc1,1.03,0.0903
Cc1ccc2cc(C)c(N3CCC(C)CC3)nc2c1,1.19,2.5
O=C(NCCN1CCOCC1)c1ccc2c(c1)N(Cc1cccc(Cl)c1)C(=O)c1ccccc1S2,0.986,-0.143
COc1nnc(-c2ccc(C)c(S(=O)(=O)NC(C)(C)OC)c2)c2ccccc12,0.948,-1.17
CC(=O)N1CCc2cc(S(=O)(=O)N3CCN(C4CCCCC4)CC3)ccc21,1.28,2.91
CN(C)c1ccc(-c2noc(-c3ccccc3O)n2)cc1,1.09,1.02
Cc1ccccc1Cc1c(C)nc2nc(SCC(=O)NCc3ccc4c(c3)OCO4)nn2c1C,0.793,-0.36
COc1ccc(Cl)cc1NC(=O)c1cc(C)no1,1.05,1.04
CCOC(=O)C1CCCN(c2c(NCCC(C)C)c(=O)c2=O)C1 (stereo not given),0.965,-0.79
CCCCNC(=O)CN1C(=O)COc2ccc(S(=O)(=O)N3CCC(C)CC3)cc21,1.07,2.24
COc1ccccc1CNC(=O)C(NS(=O)(=O)c1ccc2c(c1)CCN2C(C)=O)C(C)C (stereo not given),1.09,3.85
CN(c1ccccc1)S(=O)(=O)c1ccc(C(=O)Nc2cccc(-c3nc4ccccc4s3)c2)cc1,0.964,-0.271
COc1ccc(Cl)cc1N1CC(c2nc3ccccc3n2Cc2ccc(C)cc2)CC1=O (stereo not given),0.872,-2.46
CC(C)(C)c1ccc(OCCn2c(=N)n(CCO)c3ccccc32)cc1,0.991,-0.258
CCN(c1ccccc1)S(=O)(=O)c1ccc2[nH]c(=O)c(=O)[nH]c2c1,1.01,0.265
COCCN1Cc2cccc(C(=O)N3CCN(c4cc(C)ccc4C)CC3)c2C1=O,1.04,0.68
Cc1ccc(-c2nc(-c3ccncc3)no2)c(Cl)c1,1.03,0.29
COC(=O)c1c(NC(=O)COc2cccc(C(F)(F)F)c2)sc(C)c1C,1.3,2.9
COCC(=O)Nc1ccc2nc(N3CCC(C)CC3)cc(C)c2c1,1.01,0.16
COc1cccc(-c2nc(CS(=O)(=O)CC(=O)N3CCN(C4CCCCC4)CC3)c(C)o2)c1,0.953,-1.93
COc1cc(C(=O)Nc2ccccc2F)ccc1OCc1ccc(Cl)cc1,1.02,0.046
COc1ccccc1CNc1ccc2nnc(-c3ccc(F)cc3)n2n1,0.965,-0.789
Cc1ccc(C(C(=O)NC2CCCCC2)N2CCC(Cc3ccccc3)CC2)cc1 (stereo not given),0.735,-6.62
COc1cccc(OCCn2c(-c3ccc(Cl)cc3)nc3ccccc3c2=O)c1,1.36,3.43
O=C(Nc1ccc2c(c1)nc1n2CCN(Cc2ccccc2)C1)c1ccccc1,0.955,-0.0935
Cc1cccc(NC(=O)CSc2nc(-c3ccc4c(c3)OCO4)cn2-c2cccc(Cl)c2)c1,0.708,-2.94
O=C1CN(c2nc(-c3ccccc3)c3cc(Cl)ccc3n2)c2ccccc2N1,1.01,0.124
COc1ccc(NC(=O)CCC(=O)Nc2ccc3nc(N4CCN(C)CC4)cc(C)c3c2)c(OC)c1,1.05,0.858
O=C1c2ccccc2C(Nc2ccccc2C(F)(F)F)N1c1ccccn1 (stereo not given),0.989,-0.374
Cc1nn2c(C(F)(F)F)c3c(nc2c1-c1ccccc1)CCC3,0.897,-1.22
CCOC(=O)c1nc(Nc2ccc(Oc3ccccc3)cc2)c2ccccc2n1,0.944,-1.68

An excerpt taken from the entries so far:
canonical_smiles,CBX7 inh,CBX7 inh z-score
COc1ccc(C(=O)Nc2nc(C(F)(F)F)c(-c3ccccn3)s2)cc1OC,1.03&1.03,0.866&0.0309
Cc1n[nH]c(C)c1CCCOc1ccc(Br)cc1,1.01,0.429

Additional records.
canonical_smiles,CBX7 inh,CBX7 inh z-score
O=C(CCc1nc(-c2ccccc2F)no1)NCCCN1CCCC1=O,0.919,-1.25
COc1ccc(-n2nc3c(c2NC(=O)Cc2ccccc2)CSC3)cc1,0.864,-2.47
CCOC(=O)c1oc2ccccc2c1NC(=O)COc1ccccc1,1.04,1.5
Cc1cc(-n2c(SCCC#N)nnc2-c2cccnc2)ccc1Cl,1.11,3.17
CCN(CC)S(=O)(=O)c1ccc2c(c1)N(CC(=O)Nc1c(C)cc(C)cc1C)C(=O)CS2,1,0.0922
CC(=O)Nc1ccc(-n2c(/C=C\c3ccc(F)c(F)c3)nc3ccccc3c2=O)cc1,1.15,2.32
CS(=O)(=O)N1CCCC(C(=O)NCCc2ccccc2)C1 (stereo not given),1,-0.00617
O=c1oc2c(CN3CCCCCC3)c(O)ccc2cc1-c1nc2ccccc2[nH]1,1.05,1.43

3 compounds out of the list above, arranged by the number in CBX7 inh z-score, high to low:
SMILES | CBX7 inh z-score
O=c1oc2c(CN3CCCCCC3)c(O)ccc2cc1-c1nc2ccccc2[nH]1 | 1.43
CCN(CC)S(=O)(=O)c1ccc2c(c1)N(CC(=O)Nc1c(C)cc(C)cc1C)C(=O)CS2 | 0.0922
COc1ccc(-n2nc3c(c2NC(=O)Cc2ccccc2)CSC3)cc1 | -2.47

New compounds follow:
canonical_smiles,CBX7 inh,CBX7 inh z-score
Clc1ccc(Nc2nc(-c3ccc(Br)cc3)cs2)cc1Cl,1.01,0.103
CCOC(=O)Cc1csc(NC(=O)Nc2cccs2)n1,0.885,-3.07
COCc1c(C(N)=O)nnn1-c1nonc1N,1.09,2.47
CCN(C(=O)c1cn(CC(C)C)c(=O)c2cc(OC)c(OC)cc12)c1ccc(F)cc1,1.04,1.74
COc1ccc(CNC(=O)CN2C(=O)CCSc3ccccc32)cc1,1,-0.00487
CC(C)NC(=O)CNC(=O)Cn1ccc2ccccc2c1=O,1.33,2.76
Cc1cc(=O)[nH]c2cc(-c3ccccc3)nn12,1.04,1.61
O=C(CSc1oc(-c2ccc(F)cc2)nc1S(=O)(=O)c1ccccc1)NCC1CCCO1 (stereo not given),0.985,-0.366
COc1ccc(OC)c(NC(=O)c2sc3ncn(CC(=O)N4CCC(C)CC4)c(=O)c3c2C)c1,1.01,0.142
COC(=O)c1cc2sccc2n1Cc1nc(-c2ccc(OC)cc2)oc1C,1.05,1.46
O=C(Nc1nc(-c2cccnc2)cs1)c1ccc(S(=O)(=O)N2CCOCC2)cc1,0.983,-0.417
COc1ccc(-c2c(C)nn3c(NCCCc4ccccc4)cc(C)nc23)cc1OC,0.86,-3.48
O=C(Nc1ccc2oc(Cc3ccccc3)nc2c1)c1ccc(Cl)cc1,1.03,0.623
COc1ccc2c(c1)-c1nc(NC(=O)c3ccc(Cl)cc3)sc1CC2,1.05,0.654
COc1ccccc1-c1cc(=O)n(CC(=O)N2CCC(N3CCCCC3)CC2)c2c1CCCC2,0.901,-3.86
O=c1oc2ccc(Cl)cc2cc1-c1nnc(Nc2ccc(F)cc2)s1,0.967,-0.581
COC(=O)C(C)Oc1ccc2c(=O)c(-c3ccc4c(c3)OCCO4)coc2c1 (stereo not given),1.21,3.49
CC1CCN(CCCNC(=O)CN2N=C(c3ccccc3)CCC2=O)CC1,1.01,0.173
Fc1cccc(CSc2nc3ccncc3n2Cc2ccccc2F)c1,1.06,0.632
COc1ccc(-c2noc(CC(=O)NCc3ccccc3)c2-c2ccc(OC)cc2)cc1,0.839,-2.5
O=C(Nc1ccc(C#CC2(O)CCCCC2)cc1)C(c1ccccc1)c1ccccc1,0.851,-2.05
CCCCNS(=O)(=O)c1ccc2nc(-c3cccs3)cc(C(=O)NCCc3ccccc3)c2c1,1.01,0.0725
CCCCN1CCC(Nc2ccccc2)(C(N)=O)CC1,0.985,-0.29
Cc1cc(=O)n2nc(N3CCCC(C(=O)NC4CCN(Cc5ccccc5)CC4)C3)sc2n1 (stereo not given),1.29,2.17
O=C(CSc1nnnn1-c1ccc2c(c1)OCO2)Nc1ccc(F)c(F)c1,1.09,0.118
CN(CCNC(=O)Cn1ncc2c1-c1ccccc1OC2)C1CCCCC1,1.12,0.72
Cc1cccc(OCC(=O)Nc2nc3ccccc3n2C)c1C,0.954&1.01,-0.524&0.198
COc1ccccc1NC(=O)Cn1nnc(-c2ccccc2F)n1,0.976,-0.714
O=C(c1ccccc1F)N1CCN(c2ccc3nnc(-c4ccccc4)n3n2)CC1,0.914,-1.2
Cc1ccc(-n2nc3c(c2NC(=O)c2ccc(OC(C)C)cc2)CS(=O)(=O)C3)cc1,0.901,-0.653
COCCCNC(=O)c1ccc2c(c1)ncn2C1CCCCCC1,1.11,1.16
CCCSc1oc(-c2cccs2)nc1S(=O)(=O)c1ccc(Br)cc1,1.02,0.0398
Cc1cc(=O)n2nc(N3CCC(C(=O)NCc4ccccc4F)CC3)sc2n1,1.18,1.71
Cc1cc(N2CCC(C(=O)N(C)CCC#N)CC2)n2nc(C)c(-c3ccc(Cl)cc3)c2n1,1.13,0.323
CCN1CCN(c2cc(C)c3cc(NC(=O)Cc4ccccc4OC)ccc3n2)CC1,1.35,3.58
Cc1cc(C)cc(C(=O)Nc2c(C(=O)Nc3ccccc3F)oc3ccccc23)c1,1.1,2.73
CCCCN(C)C(=O)c1cn(-c2ccc(OC)cc2)c(=O)c2ccccc12,0.946,-0.696
O=C(Cn1c2c(c(-c3ccccc3Cl)cc1=O)CCC2)NCCc1ccc(Cl)cc1,0.815,-2
CCc1cccc(NC2c3ccccc3C(=O)N2c2ccccc2C)c1 (stereo not given),1.1,1.86
O=c1oc2ccc(Cl)cc2cc1-c1csc(Nc2ccc(F)cc2)n1,1.07,1.43
COc1ccccc1C(=O)Nc1c(C(=O)Nc2ccc(F)cc2)oc2ccccc12,0.985,-0.198
CCc1ccc(NC(=O)c2cc3nc(-c4ccccc4)cc(C(F)(F)F)n3n2)cc1,1.05,2.2
O=C(Nc1ccc(Br)cc1)c1ccccc1C(=O)c1ncc[nH]1,1.06&1,1.66&0.00381
Cc1cccc(N2C(=O)N(c3ccccc3Cl)C3CS(=O)(=O)CC32)c1 (stereo not given),1.09,1.67
CCCn1cnc2cc(NCc3ccc(C)cc3)ccc21,0.463*,-15.4*
CC(C)(C)C(=O)Nc1nnc(Cc2ccc(Cl)cc2)s1,0.993,-0.281
CCC(=O)N1CCc2cc(S(=O)(=O)NCCC(=O)Nc3ccc(C)cc3C)ccc21,1.05,1.97
COCCCNC(=O)c1cnc(Nc2ccc(C)c(Cl)c2)c2ccccc12,1.19,5.52
Cc1nc2c(-c3ccccc3)c(C)nn2c(C)c1CCC(=O)NC(C)c1cccs1 (stereo not given),1.21,2.36
O=C(Nc1ccc2c(c1)C(=O)N(c1ccc(Oc3ccccc3)cc1)C2=O)c1ccccc1,1,0.0736
CC1CCC(NC(=O)C2c3ccccc3C(=O)N2Cc2ccc3c(c2)OCO3)CC1 (stereo not given),1.04,0.918
Cc1cc(C)cc(NC(=O)CSc2nnc(CNC(=O)COc3ccc(Cl)cc3)o2)c1,0.933,-1.03
Cc1ccc2cc(CCNC(=O)C3CC3)c(=O)[nH]c2c1,1.01,0.36
CC(C)c1ccc(N(C)C(=O)CNC(=O)Cn2ccc3ccccc3c2=O)cc1,1.03,0.864
COc1ccc(CN(C(=O)COc2c(C)cccc2C)C2CCS(=O)(=O)C2)cc1OC (stereo not given),0.988,-0.155
Cc1ccc(Nc2c3c(nc4ccc(Cl)cc24)CCCC3)c(Br)c1,0.778,-0.302

Remaining list, next part.
canonical_smiles,CBX7 inh,CBX7 inh z-score
O=C(c1ccc2c(c1)OCO2)N1CCNc2ccccc2C1,1.03,0.315
CCOc1ccc(C(=O)Nc2cccc(-c3nc4ncccc4o3)c2)cc1[N+](=O)[O-],0.946,-1.36
O=C(Nc1ccccc1F)c1cc(-c2cccs2)nc2ccccc12,1.07,1.76
COCCCNC(=O)c1cc2sc(Cl)cc2n1C,1.04,1.42
CCc1ccccc1NC(=O)c1cc(-c2ccccc2OC)on1,1.01,0.377
O=C(c1ccc2c(c1)N(Cc1c(F)cccc1Cl)C(=O)c1ccccc1S2)N1CCCCC1,0.918,-0.357
COc1ccc(CN2C(=O)N(c3ccccc3)C(=O)C2CC(=O)Nc2ccc(F)cc2)cc1 (stereo not given),1.04,1.5
CC1CCN(c2ccc3nnc(-c4ccccc4)n3n2)CC1,0.947,-1.2
Cc1ccc2nc(-c3cc(Br)ccc3F)c(Nc3ccccc3C)n2c1,1.01,0.404

Looked up by structure from above (4):
canonical_smiles,CBX7 inh,CBX7 inh z-score
CCOc1ccc(C(=O)Nc2cccc(-c3nc4ncccc4o3)c2)cc1[N+](=O)[O-],0.946,-1.36
Cc1ccc2nc(-c3cc(Br)ccc3F)c(Nc3ccccc3C)n2c1,1.01,0.404
CC1CCN(c2ccc3nnc(-c4ccccc4)n3n2)CC1,0.947,-1.2
O=C(Nc1ccccc1F)c1cc(-c2cccs2)nc2ccccc12,1.07,1.76
